# CSC inhib: blocks cancer stem cells | 300,000 compounds, 1.1% hits | inhibition, % at 7.5 µM | cancer stem cell-like cells viability, luminescence;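 active = mean at 75% or more and at least half the replicates too; inconclusive = mean and replicates disagree; tested in HMLE shEcad cells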;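 note: 0% = median of negative and 100% = median of positive control wells; the first replicate is given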
# Env fusion inh: inhibitors of HIV Env-mediated cell fusion; HeLa-JRFL Env/CEM21 cell fusion, luciferase; inhibition, % at 12.3 µM; 360,000 compounds, 1.1% hits; AID 651610;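 active = mean replicate inhibition score of at least 50 and every replicate individually at or above 50; inconclusive = only one of the two criteria met; inactive = mean below 50 and not all replicates reaching 50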;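 note: 0% = plate neutral controls and 100% = maraviroc near 300 nM; one replicate is shown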
# Rce1 inhib: yeast Ras-converting enzyme inhibition | Q03530 | calls only | yeast membranes, quenched prenylated peptide cleavage fluorescence | 290,000 compounds, 0.27% hits;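 active = fall in fluorescence gain of 50% or more versus controls, with final raw signal at or below 3038400; inconclusive = same 50% fall but final raw signal above 3038400; inactive = fall in fluorescence gain under 50%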;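 note: plate controls were neutral control wells for no effect and wells lacking membranes for full effect; tested at 10 µM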
# eIF4H FP inh: inhibitors of RNA binding by human eIF4H; eIF4H fluorescence polarization binding assay; inhibition, % at 35 µM; Q15056; 290,000 compounds, 0.94% hits; AID 2012;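 active = 50% or more with normal probe brightness, or confirmed in later tests; inconclusive = above 50% with abnormal brightness, or retests that disagree; inactive = below 50% or failed in later tests; about a fifth of its hits are not listed in these tables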;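 note: calls also rest on retests at 20 µM and on dose response follow-up; 0% = protein and probe with vehicle and 100% = probe without protein; strong numbers were not always called active; many hits fall short of the cut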
# UUG fidelity: alters start codon recognition fidelity in yeast; S. cerevisiae UUG-firefly luciferase reporter, luminescence/redox ratio; activity score, % at 18.7 µM; 350,000 compounds, 0.13% hits; AID 602363;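 active = replicate mean at a twofold rise or more, about +100% in these data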;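 note: firefly luciferase made from a UUG start codon reports start codon fidelity; reporter light over untreated wells divided by growth signal over untreated wells; some hits fall short of that in this replicate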
# PABP polyA inh: PABP-poly(A) binding inhibition. P11940. PABP-poly(A) RNA binding, fluorescence polarization. inhibition, % at 35 µM. 290,000 compounds, 1% hits;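 active = 50% or more with normal probe brightness, or confirmed in later tests; inconclusive = above 50% with abnormal brightness, or retests that disagree; inactive = below 50% or failed in later tests; about a fifth of its hits are not listed in these tables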;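 note: calls also rest on retests at 20 µM and on dose response follow-up; controls were probe without protein and protein plus probe with vehicle; some compounds called inactive have numbers as strong as hits; many hits fall short of the cut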
# Target sequence (P11940 whole entry, looked up): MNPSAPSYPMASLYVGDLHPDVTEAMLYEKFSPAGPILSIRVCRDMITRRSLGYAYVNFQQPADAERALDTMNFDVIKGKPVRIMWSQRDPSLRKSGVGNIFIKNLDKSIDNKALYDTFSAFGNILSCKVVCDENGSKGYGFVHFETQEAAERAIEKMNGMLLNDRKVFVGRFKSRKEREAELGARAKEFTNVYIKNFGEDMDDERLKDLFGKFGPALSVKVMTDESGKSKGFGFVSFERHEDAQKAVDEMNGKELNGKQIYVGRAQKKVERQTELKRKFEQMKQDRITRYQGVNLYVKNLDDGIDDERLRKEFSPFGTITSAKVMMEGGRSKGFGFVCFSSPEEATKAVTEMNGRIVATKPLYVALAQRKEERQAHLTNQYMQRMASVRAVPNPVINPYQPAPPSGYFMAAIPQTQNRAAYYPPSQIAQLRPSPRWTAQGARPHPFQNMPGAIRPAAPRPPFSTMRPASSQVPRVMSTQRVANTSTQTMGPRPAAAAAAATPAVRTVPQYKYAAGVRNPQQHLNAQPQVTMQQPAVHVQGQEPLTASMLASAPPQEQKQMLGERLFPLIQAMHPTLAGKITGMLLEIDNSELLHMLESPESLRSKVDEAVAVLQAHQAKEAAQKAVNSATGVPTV
# MT1-MMP act inh: inhibitors of human MT1-MMP activation; GFP/RFP ratio change, % at 20 µM; HT1080 RFP-PRO-GFP cells, GFP/RFP ratio fluorescence, overnight; percent of plate control window, DMSO zero; 360,000 compounds, 0.061% hits; P50281; AID 651647;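 active = GFP/RFP ratio change of at least 30% with cell ATP level not reduced by more than half and red fluorescence within 50% of control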; note: strong numbers were not always called active
#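 Assay system: HT1080 cells carrying an RFP-PRO-GFP reporter | Dosing: Single dose of 20 µM compound, 1% DMSO final | Incubation: Cells overnight before dosing, compound overnight, 37 °C, 5% CO2 | Evaluation: GFP/RFP fluorescence ratio | Control set: DMSO and RFP-L50D-GFP cell wells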
# eIF4H FP inh retest: further read-out of eIF4H FP inh, marked with its call; inhibition, %; compound at 20 µM; confirmation average;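 mean of two retest wells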
# PABP polyA inh retest: also measured in PABP polyA inh; calls as there; inhibition, %; compound at 20 µM; confirmation repeats;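 mean of two retest wells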
# MT1-MMP act inh RFP: recorded beside MT1-MMP act inh, whose call it bears; RFP signal change, %; measured here: RFP expression control read;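 0 = vehicle wells; hits needed this value within 50% of zero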
# Numbers without * were called inactive; i = inactive; u = inconclusive; x = no result given.
# Preview, two compounds:
SMILES,CSC inhib,Env fusion inh,Rce1 inhib,eIF4H FP inh,UUG fidelity,PABP polyA inh,MT1-MMP act inh,MT1-MMP act inh RFP,others
CC(C)(C)C(=O)NC1(C(F)(F)F)N=C2SCCN2C1=O (stereo not given),-7,3,i,3,-13,-6,-7,-6,
CC1CCCCC12NC(=O)N(CC(=O)NC(=O)Nc1ccc3c(c1)OCCO3)C2=O (stereo not given),11,x,i,0,-20,29,3,4,

# The listing, repeating the preview:
SMILES,CSC inhib,Env fusion inh,Rce1 inhib,eIF4H FP inh,UUG fidelity,PABP polyA inh,MT1-MMP act inh,MT1-MMP act inh RFP,others
CC(C)(C)C(=O)NC1(C(F)(F)F)N=C2SCCN2C1=O (stereo not given),-7,3,i,3,-13,-6,-7,-6,
CC1CCCCC12NC(=O)N(CC(=O)NC(=O)Nc1ccc3c(c1)OCCO3)C2=O (stereo not given),11,x,i,0,-20,29,3,4,
Cn1c(CN2CCOCC2)nnc1SCC(=O)Nc1nccs1,-1,-224,x,-3,-9,-10,4,10,
O=C(Nc1nc2c(F)cc(F)cc2s1)C1CC(=O)N(Cc2ccco2)C1 (stereo not given),1,-42,i,35,-2,32,-4,-1,
COc1ccc(CNC2CC(=O)N(C)C2=O)cc1 (stereo not given),-13,x,i,-2,-14,-7,1,3,
CC(=O)c1ccc2c(c1)N(Cc1ccccc1)C(=O)C(C)S2 (stereo not given),x,-17,x,x,10,x,0,4,
O=C1NC(=Nc2ccc(Cl)cc2)/C(=C/c2ccco2)S1,26,2,i,u,x,10,-26,1,
CCOC(=O)C1CCN(C(=O)CN2C(=O)C(CC)Oc3ccccc32)CC1 (stereo not given),-3,x,i,0,2,-4,9,2,
C=CCSc1nnc2nc3[nH]c4c(C)cccc4c3nn12,-19,x,i,u,-7,u,2,-1,
Cc1sc2ncn(CC(=O)NCCCN3CCC(C)CC3)c(=O)c2c1S(=O)(=O)N1CCC(C)CC1,-11,10,i,-1,-22,1,-3,2,
CC(NC(=O)Cn1nc(-c2ccccc2)ccc1=O)c1ccccc1 (stereo not given),0,-13,i,88,-12,48,3,5,eIF4H FP inh retest=4;PABP polyA inh retest=7
COc1ccc(OCc2nc(C#N)c(NCCCn3ccnc3)o2)cc1,x,11,i,-9,x,13,-2,-3,
COc1ccccc1N1CCN(C(=O)CN(C)S(=O)(=O)c2cc(C)ccc2OC)CC1,-16,16,i,-4,x,5,-2,-3,
CCC1(C)CC2(CCCN(CCC(O)(c3ccccc3)c3ccccc3)C2)CCO1 (stereo not given),11,8,i,-1,-22,-5,-3,-2,
Cc1ccc(C(=O)N/C(=C/c2ccc(-c3ccc([N+](=O)[O-])cc3)o2)C(=O)NCCCN(C)C)cc1,10,-11,i,x,x,x,-63,-8,
CNc1nc(N2CCc3ccccc32)ncc1F,23,x,i,-2,x,12,12,5,
O=C(Nc1ccc(S(=O)(=O)Nc2nccs2)cc1)C1CCCCC1,3,22,i,-6,2,10,4,3,
O=C(NCc1ccccn1)C1CC(=O)N(C2CCCC2)C1 (stereo not given),x,-10,i,x,-14,x,-2,4,
CCCN(C(=O)Cn1ncc2c(=O)oc3ccccc3c21)c1cccc(C)c1,16,-226,i,0,2,5,-4,-1,
Cc1ccc(-c2noc(CCC(=O)Nc3cc(C)ccn3)n2)cc1,-8,x,i,9,-11,-2,1,0,
O=C1CCc2ccc(NS(=O)(=O)c3ccc(F)cc3)cc2N1,-7,10,i,0,x,2,6,-1,
CCOC(=O)Nc1nc(C)c(C(=O)c2ccc(Cl)cc2)s1,-13,x,i,-8,-7,0,x,x,
COc1ccc(-n2cccc2C=O)cc1,8,-7,i,2,-2,3,5,-2,
Cc1cc(C)c(S(=O)(=O)N2CCCOC2CNC(=O)C(=O)NCc2ccccn2)c(C)c1 (stereo not given),-4,5,x,0,x,-12,0,6,
O=C(NCc1n[nH]c(=S)n1-c1ccc(Cl)c(Cl)c1)c1ccco1,-2,0,i,-7,-26,-1,2,2,
O=C(COC(=O)[C@@H]1CCCN1C(=O)c1cccs1)Nc1ccc(F)cc1[N+](=O)[O-],-10,-7,i,-2,x,-5,-1,3,
CCn1c(=S)sc2c(=O)[nH]c(C)nc21,-20,-5,i,0,-4,2,-4,0,
Fc1cccc(Cl)c1CSc1nnnn1-c1ccc2c(c1)OCO2,42,24,i,0,-15,8,-2,-2,
CCCNC(=O)c1cccc(COc2ccccc2OC)c1,-3,-42,i,8,x,5,4,5,
S=C(NC1CCCC1)NC1CC1,3,-5,i,-13,-21,-7,1,2,
CCc1ccc(NC(=O)c2c(C(=O)Nc3ccccc3)sc3nc(C)cc(=O)n23)cc1,x,21,i,-3,x,0,0,-2,
CCn1c(Cc2ccccc2)nnc1SCC(=O)Nc1ccc2c(c1)OCO2,-10,x,i,0,-3,-5,1,-4,
Cc1cnc(C(=O)OCC(=O)c2csc(N3CCCCC3)n2)cn1,-1,-17,i,38,0,13,-3,2,
COC(=O)c1ccccc1NC(=O)CSc1nnc(-c2cccnc2)n1N,8,7,i,2,-15,1,-1,0,
COc1ccc(-c2nc(CSCC(=O)NC3CC3)c(C)o2)cc1OC,-12,-2,i,-11,x,4,2,1,
COCCCNC(=O)Nc1ccc(F)cc1F,-21,2,i,1,-11,-5,-2,-2,
O=C(Nc1ccc(O)c2c(=O)cc(-c3cccc(Cl)c3)oc12)c1ccccc1Cl,-3,-2,i,0,-12,8,2,0,
Cc1cccc(NC(=O)C(=O)NCC2CCCN2S(=O)(=O)c2cccs2)c1C (stereo not given),x,x,i,x,-9,x,1,-4,
O=C(NCc1ccc(OC(F)(F)F)cc1)c1cccc2c1C(=O)c1ccc(N3CCC(Cc4ccccc4)CC3)cc1S2(=O)=O,15,u,x,x,-8,x,-188,-25,
CN(CCOc1cccc2ccccc12)Cc1ccccc1,-1,5,i,4,-8,-2,-3,1,
CCn1cc(C(=O)NCCC2=CCCCC2)c(=O)c2cc(S(=O)(=O)N(C)C)ccc21,-15,11,i,0,10,-17,5,-10,
COc1cc(CNCC(C)C)c(Br)cc1OCC(=O)NCc1ccccc1,-5,-209,i,-10,-11,-12,1,1,
Cc1ccc(-c2cc[n+](Cc3ccccc3)cc2)cc1,4,35,i,-2,x,2,-5,-17,
COc1cc(CNc2ccc3[nH]c(=O)[nH]c3c2)ccc1OCc1ccc(F)cc1,8,-18,i,-2,-4,3,1,-14,
O=C(CCCc1ccccc1)Nc1ccnn1C1CCN(Cc2ccccc2)CC1,-2,3,i,x,-12,x,-3,-4,
Cc1cc(C)n2nc(C(=O)NNC(=O)c3ccccc3)nc2n1,-8,2,i,-11,2,0,0,6,
COC(=O)c1cc(Cl)c(NC(=O)c2cc3ccccc3o2)cc1OC,-7,x,i,14,-14,6,2,1,
Cc1ccc(NC(=O)COC(=O)CCc2nc3ccccc3c(=O)[nH]2)cc1Cl,x,-1,i,-5,-17,-4,-5,2,
CC1CN(C(=O)CSc2nc(-c3ccc(F)cc3)cs2)CC(C)O1 (stereo not given),-15,x,i,-5,-9,6,0,-4,
Nc1ccc(-c2nnc(-c3ccc(N)cc3)o2)cc1,x,-66,i,4,-24,-2,2,-3,
CCCc1cc(=O)oc2cc(OC(=O)CN3C(=O)NC4(CCCC4)C3=O)ccc12,-3,-4,i,x,x,x,-14,-1,
COc1ccccc1N(CC(=O)NCCSCc1ccco1)S(=O)(=O)c1ccccc1,-14,-32,i,9,4,-2,0,-1,
CCn1c(Oc2ccccc2C)nc2c1c(=O)n(C)c(=O)n2C,x,36,i,-7,1,-5,-11,-7,
Cc1ccc(S(=O)(=O)NCC(=O)N2CCOCC2)cc1,5,-53,i,-9,3,-1,2,5,
CC1CCCN(C(=O)CSc2nc3ccccc3o2)C1 (stereo not given),-13,-3,x,-3,-4,4,2,6,
CCN1C(C)=CC(=O)[C@@H](O)[C@H]1c1ccccc1Br,x,-12,x,x,-8,x,4,5,
O=C(NCc1ccco1)c1ccc2c(=O)n(Cc3ccco3)c(SCC(=O)N3CCCC3)nc2c1,x,-72,x,66,-9,20,0,-2,eIF4H FP inh retest=42;PABP polyA inh retest=12
CCCn1nnnc1NCc1ccccc1OCc1cccs1,-4,x,i,-2,4,0,6,-1,
CC1(C)CC(=O)C(C=NCCN2CCNCC2)=C(O)C1,-7,18,i,-8,x,-1,0,1,
COc1ccc(OC)c(C2=NOC(C(=O)NCC3CCCO3)C2)c1 (stereo not given),-3,x,i,-1,18,-2,0,1,
# New compounds follow.
SMILES,CSC inhib,Env fusion inh,Rce1 inhib,eIF4H FP inh,UUG fidelity,PABP polyA inh,MT1-MMP act inh,MT1-MMP act inh RFP,others
COc1ccc(CC(=S)N2CCOCC2)cc1F,x,-4,i,-1,x,-6,3,3,
Cc1cc(NC(=O)CSc2nccn2-c2cccc(Cl)c2)no1,2,5,i,-5,-17,-6,4,3,
CC(=O)Nc1ccc(C(=O)COC(=O)CCc2ccccc2)c(F)c1,-10,x,x,x,3,x,1,2,
COc1ccc(/C=N/NC(=O)c2ccc(C)nc2)cc1O,2,9,i,5,1,-15,-1,2,
N#Cc1ccc(C#Cc2ccc3oc4ccccc4c(=O)c3c2)cc1,-8,-28,x,x,-16,x,2,2,
Cc1ccc(S(=O)(=O)N2CCOCC2)cc1C(=O)OC1CCCCC1=O (stereo not given),-10,-12,i,-11,3,-9,-2,-2,
COc1ccc2[nH]c(CN3CCN(CCC(C)C)C(CCO)C3)c(C)c2c1 (stereo not given),-1,0,i,6,x,-6,3,7,
CN(C)C(=O)C1C2NC(=S)N(c3ccc(Cl)cc3)C1(C)Oc1ccc(Cl)cc12 (stereo not given),-3,18,i,5,-12,2,0,3,
Cn1c(=O)[nH]c(=O)c2c1nc(CN1CCOCC1)n2Cc1ccccc1,1,x,i,u,-8,-4,-4,2,
CC(=O)Nc1ccccc1-c1nnn(CC(=O)Nc2ccc3c(c2)OCCO3)n1,-3,-8,i,2,-11,0,0,-3,
O=C1CC[C@H](O)CCN1[C@H](CSc1ccc(Br)cc1)Cc1ccccc1,6,-5,x,x,8,x,3,2,
O=C1CN(C(=O)CNCc2cccc(Cl)c2)c2ccccc2N1,-18,-4,i,14,-18,3,-2,1,
CC(C)Oc1ccc(Cn2c(=O)oc3ccccc32)cc1,-14,10,i,4,-20,-3,2,3,
COc1ccc(COC(=O)C2=C(C)NC(=O)NC2c2ccc(OC)cc2)cc1 (stereo not given),-8,72*,i,0,-11,-1,0,-4,
C=CCNC(=S)N1CCN(c2cc3c(cc2F)c(=O)c(C(=O)O)cn3CC)CC1,-11,14,i,6,x,-4,-8,-2,
O=C(NCc1cccs1)c1ccc(Cl)c(S(=O)(=O)N2CCCC2)c1,-6,18,i,-11,x,7,1,-5,
Cc1ccc(C2(C(F)(F)F)NC(=O)N3N=C4CCCCCN4C3=C2C#N)cc1 (stereo not given),-4,2,i,-8,x,-10,-2,4,
CC(C)Cn1c(N)c(C(=O)CSc2nnc(C3CC3)n2C2CC2)c(=O)n(C)c1=O,x,-39,x,x,2,x,1,-2,
CN1CCN(C(=O)OCCOCCOC(=O)N2CCN(C)CC2)CC1,x,-1,x,x,-9,x,0,4,
COc1ccc2[nH]cc(CCNC(=O)COc3cc(C)cc4oc(=O)cc(C)c34)c2c1,-13,x,x,-13,-11,4,-1,0,
NC(=O)CSc1nccn1Cc1ccccc1,3,5,i,4,-16,-1,0,3,

# Screening results: PubChem BioAssay, several laboratories

# A portion of the library; count on the stated rates, not on these rows.
